Ba CapD inh: Bacillus anthracis CapD inhibitors, primary screen, biochemical, fluorescence intensity. CapD gamma-glutamyltranspeptidase (Bacillus anthracis Ames Ancestor). purified CapD enzyme, fluorescence intensity read-out; stronger effect = lower value; some hits fall short of the stated cut. z-score (test concentration not listed). 140,000 compounds, 0.23% hits;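 active = z-score under -4 in either of two replicates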;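 note: stock transfer was 100 nL into about 40 µL; score is relative to mean and spread of the plate; one replicate is shown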
AID504770: growth inhibition of E. coli YBA685, primary screen, V. cholerae RctB inhibitors; E. coli YBA685 rctB-dependent plasmid, OD600 growth, 3 h; stronger effect = lower value; z-score (no concentration beside the values); 130,000 compounds, 0.27% hits; AID 504770, 2011;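 active = z-score under -2 on both plates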;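 note: wells of about 30 µL received 100 nL stock; score is relative to mean and SD of the test wells; the first replicate is given; strong numbers were not always called active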
Active calls of the source: *; i = inactive; / = no result given.

Order of values – Ba CapD inh | AID504770
COc1ccc(CCN(C)C(=O)NCc2cccnc2)cc1OC
→ -1.06 | /
CN(Cc1ccccc1)C(=O)CCc1nc2cccnc2n1Cc1ccccc1
→ 0.435 | 1.65
CC(C)C(=O)N(c1nnc(-c2ccncc2)s1)C(C)C
→ / | 0
CN1CC(C(=O)c2ccc(Cl)cc2)C(C(=O)c2ccc(Cl)cc2)C1 (stereo unspecified)
→ 0.455 | /
O=C(NC(Cc1nc2ccccc2[nH]1)c1ccccc1)c1ccccc1 (stereo unspecified)
→ -0.35 | -0.3
O=C1COc2cc(S(=O)(=O)NCc3ccccc3)ccc2N1
→ -1.75 | 1.85
CC1CN(S(=O)(=O)c2ccc(NC(=O)CN3C(=O)COc4ccccc43)cc2)CC(C)O1 (stereo unspecified)
→ / | -0.5
O=S(=O)(NCCCCCc1nc2ccccc2[nH]1)c1cccc2nsnc12
→ -0.16 | /
COc1ccc(C2CC(c3c(O)cc(C)oc3=O)=NCCS2)c(OC)c1 (stereo unspecified)
→ -0.23 | -0.95
O=c1c2ccccc2c(=O)c2c1c(Nc1ccccc1)cc1oc3cc(Cl)ccc3[nH]c12
→ 0.33 | /
CC(C)Cn1c(CO)nc2ccccc21
→ 0.58 | -0.65
CCCC1=NN(C(=O)Cc2ccc([N+](=O)[O-])cc2)C(O)(C(F)(F)F)C1 (stereo unspecified)
→ -0.175 | /
CC(C)Cc1oc(C(=O)O)cc1CN
→ / | -0.5
C=CCNC(=O)COc1ccc(Cl)cc1Cl
→ 0.19 | -1
O=S(=O)(NCC1CCCO1)c1cccc2nonc12 (stereo unspecified)
→ -1.07 | /
NC(=O)c1ccccc1NC(=O)CSc1nc(N)cc(=O)[nH]1
→ / | -1.3
Cc1cccc(C2(c3cccc(C)c3)CC2C(=O)Nc2cccc(Cl)c2)c1 (stereo unspecified)
→ -0.205 | /
CCS(=O)(=O)c1cccc(C(=O)Nc2nccs2)c1
→ / | -0.8
COc1cc(C(=O)Nc2ccc3oc(-c4cccc5ccccc45)nc3c2)cc(OC)c1OC
→ 99.5 | /
CC(C)(C)NC(=O)CCOC(Cc1cnccn1)c1ccc(C(F)(F)F)cc1 (stereo unspecified)
→ -0.41 | /
CCCN(CCO)CCCc1ccccc1
→ -0.33 | 1
COC(=O)c1ccc(C2Oc3c(OC)cccc3C3CC(c4ccco4)=NN32)cc1 (stereo unspecified)
→ -0.945 | /
CN=C1SC(CC(=O)Nc2ccccc2F)C(=O)N1C (stereo unspecified)
→ -0.65 | /
CC1(C)CC(=O)C=C(N2CCN(Cc3ccccc3)CC2)C1
→ / | -0.1
O=C(CSc1nnc(-c2ccc(OC(F)F)cc2)o1)NCC12CC3CC(CC(C3)C1)C2
→ / | -0.45
Cn1c(CNC(=O)c2ccccc2)n[nH]c1=S
→ / | -0.5
CCCC(=O)Nc1ccc(Cl)c(Cl)c1
→ 0.25 | 0.4
C1CCN(SN2CCCCC2)CC1
→ 0.355 | -0.4
Cc1ccc(CN(C)Cn2nc(-c3c[nH]c4ccccc34)n(CC3CCCO3)c2=S)o1 (stereo unspecified)
→ / | 1.35
Cc1cccc(C)c1NC1=NC(=S)N(c2cccc(Cl)c2)C12CCC(C(C)(C)C)CC2 (stereo unspecified)
→ 0.115 | /

Entries above that have fluorine (4):
Order of values – Ba CapD inh | AID504770
CCCC1=NN(C(=O)Cc2ccc([N+](=O)[O-])cc2)C(O)(C(F)(F)F)C1 (stereo unspecified)
→ -0.175 | /
CC(C)(C)NC(=O)CCOC(Cc1cnccn1)c1ccc(C(F)(F)F)cc1 (stereo unspecified)
→ -0.41 | /
CN=C1SC(CC(=O)Nc2ccccc2F)C(=O)N1C (stereo unspecified)
→ -0.65 | /
O=C(CSc1nnc(-c2ccc(OC(F)F)cc2)o1)NCC12CC3CC(CC(C3)C1)C2
→ / | -0.45

Carrying on.
Order of values – Ba CapD inh | AID504770
O=C(/C=C/c1cccs1)N(C1CC1)C1(C(=O)Nc2ccccc2)CCCC1
→ -2.3 | -0.2
CCSc1nc2ccccc2n1CC(=O)Nc1ccccc1[N+](=O)[O-]
→ -0.14 | /
COC(=O)c1ccc(N2C(=O)C3C4c5ccccc5C(C)(c5ccccc54)C3C2=O)cc1 (stereo unspecified)
→ -0.085 | /
O=C1NN=C(c2ccccc2)C1CCO (stereo unspecified)
→ -0.215 | -0.7
O=C(Nc1ccccc1)N1CCN(Cc2ccc3c(c2)OCO3)CC1
→ 0.66 | 0.6
COC(=O)C(NC=O)C(O)(c1ccc(OC)cc1)C(F)(F)F (stereo unspecified)
→ / | -0.35
COc1ccc(CCNC(=O)CSc2nc(O)c(C(C)C)c(=O)[nH]2)cc1OC
→ / | -0.9
CC(C)(C)C(=O)Nc1nnc(SCC(=O)Nc2cc(C(F)(F)F)ccc2Cl)s1
→ 0.185 | -1.25
CCN(CC)S(=O)(=O)c1ccc(C(=O)Nc2c3c(nn2-c2ccc(C)cc2C)CSC3)cc1
→ 2.51 | /
Cc1ccoc1C(=O)N1CCCCC1C(=O)O (stereo unspecified)
→ -0.595 | -0.25
CCC(Sc1ccc(C(=O)O)cc1)C(=O)O (stereo unspecified)
→ 0.415 | 1.85
CC(C)(C)C(=O)c1cnc(Nc2ccccc2)s1
→ 16.1 | -0.6
CCOC(=O)C1(C#N)C(=O)C(C#N)=C2CCCCC2C1c1ccccc1 (stereo unspecified)
→ 2.13 | 0.4
Nc1ncc(Br)cc1S(=O)(=O)NCc1cccnc1
→ 14.8 | -0.05
COc1ccc(CN2C(=O)C(C)N(c3ccc(C)cc3)C2=O)cc1F (stereo unspecified)
→ / | -0.55
CCCCN(C)C(=O)c1ccc2c(c1)N(Cc1ccccc1)C(=O)c1ccccc1S2=O (stereo unspecified)
→ -0.215 | 0.95
Cn1cnc2nc(SCC(=O)O)nc(N)c21
→ -0.45 | -0.05
Cc1ccc(Cl)cc1NC1=NC(=S)N(Cc2c(F)cccc2F)C12CCCCC2
→ -0.115 | /
O=C(O)c1coc2ccccc2c1=O
→ 0.235 | /
O=C(Cn1c2ccccc2c(=O)c2cc([N+](=O)[O-])ccc21)Nc1ccc2c(c1)CCC2
→ 0.385 | /
CC1CN(C(=O)n2ccnc2)c2ccccc2S1 (stereo unspecified)
→ 0 | 0.75
Cn1c(NC(=O)Cc2ccccc2)cc(=O)n(C)c1=O
→ / | 0.05
CC(=O)Nc1ccc(SC(C)C(=O)NC(N)=O)cc1 (stereo unspecified)
→ / | -0.1
CC(C)(C)C(=O)C[n+]1ccc(C(N)=O)cc1
→ 6.84 | -0.15
COc1ccc(NC(=O)OCC(F)(F)F)cc1
→ / | -0.35
NC(=O)COC(=O)c1cccc(S(=O)(=O)N2CCc3ccccc3C2)c1
→ / | 0.05
CCC(C)NC(=O)CC(c1ccc(OC)cc1)n1cccc1 (stereo unspecified)
→ 60.8 | -0.1
O=C(O)c1ccccc1-c1nn[nH]n1
→ 0.48 | -0.45
CC(C)(C)Cc1ccc(OCCCC(=O)O)c(CC(C)(C)C)c1
→ -0.185 | 0
COC(=O)c1c(O)c(C=Nc2ccc(Br)cc2)c(=O)n2c1CCC2
→ / | -0.6
Cc1ccc2oc(=O)c3cnn(CC(=O)NCCCN4CCC(C)CC4)c3c2c1
→ 1.27 | -0.55
O=S(=O)(c1ccc(Cl)c(Cl)c1)N1CCN(Cc2ccsc2)CC1
→ -1.14 | /
CCOC(=O)c1nc2ccccc2c(=O)[nH]1
→ 0.4 | -1.35
CC(=O)Nc1ccc(OS(=O)Nc2nnc(C)c3ccccc23)cc1 (stereo unspecified)
→ 2.58 | -0.45
N#C/C(=C\c1ccc(Cl)cc1Cl)c1c[nH]c2ccccc12
→ 0.905 | 1.4
O/N=C/c1cn(-c2ccccc2)nc1-c1cccnc1
→ 0.26 | -0.85
COc1ccccc1N(C)C(=O)CCS(=O)(=O)c1ccc2c(c1)OCC(=O)N2
→ -0.46 | -1
CC(=O)Nc1nc2ccc(S(C)(=O)=O)cc2s1
→ i | -0.55
CCN(Cc1ccncc1)C(=O)NCCc1c[nH]c2cc(OC)ccc12
→ 0.09 | /
CCOc1ccc(/C=N/NC(=O)C(CCSC)NC(=O)c2ccc(C(F)(F)F)cc2)cc1 (stereo unspecified)
→ 0.6 | /
CCn1c(=O)c2cc(C(=O)N3CCN(Cc4ccccc4)CC3)sc2c2ccccc21
→ -2.18 | 1.05
Cc1ccc(C(=O)C2=C(N)OC3=C(C(=O)CCC3)C2c2ccccc2Cl)cc1 (stereo unspecified)
→ -0.99 | /
OCCCc1nc2n(n1)C(c1ccccc1)C=C(c1ccccc1)N2 (stereo unspecified)
→ 29.6 | -1.45
S=C(NCCc1ccccc1)N1CCN(c2ncccn2)CC1
→ 0.63 | 0.55
CC1/C(=N\O)CC(c2ccccc2)N(C)C1c1ccccc1 (stereo unspecified)
→ -0.545 | 0.7
CC1=C(C(=O)Nn2cnc3cccc(F)c3c2=N)Sc2ccccc2N1
→ -1.25 | 0.85
COc1ccc(CCN(C)C(=O)c2ccccc2OC)cc1OC
→ -1.16 | /
CC(C)(C)c1ccc(-c2nnc(-c3ccccc3NC(=O)NC(=O)c3ccccc3Cl)o2)cc1
→ 0.505 | /
Cc1cc(NC(=O)c2cccc(F)c2)ccc1NC(=O)c1ccco1
→ / | 2
Brc1ccc(-c2nnc(CC34CC5CC(CC(C5)C3)C4)o2)cc1
→ -0.55 | 1.6
COc1cccc(-n2c(=S)sc3c(=O)n4[nH]c(=O)c5ccccc5c4nc32)c1
→ 0.415 | 0.95
CCOC(=O)c1cncc(C#CCOC(=O)N2CCC(O)(Cc3ccccc3)CC2)c1
→ 0.485 | /
CCOc1ccc(C(=O)C(C)Sc2nnc(-c3ccc(Br)cc3)o2)cc1 (stereo unspecified)
→ -0.795 | /
O=c1[nH]cnc2c1sc1nc(-c3ccccc3)cc(-c3ccccc3)c12
→ 23.6 | -0.6
COc1cccc2cc(C(=O)NC(C)=O)c(=Nc3cccc(C(F)(F)F)c3)oc12
→ 0.105 | /
CCC(=O)Oc1ccc2c3c(c(=O)oc2c1)CCC3
→ 44.8 | 1.65
CSC1=NS(=O)(=O)c2c(C)nn(C)c2S1
→ -0.315 | /
Cc1cc(=O)oc2c(CN(C)C)c(O)ccc12
→ 69.5 | 0.05
COCCNC(=O)C1CCN(C(=O)C(C)(C)C)CC1
→ / | -0.7
CCn1c(SC(C)C(=O)c2ccc(Br)cc2)nnc1-c1cccs1 (stereo unspecified)
→ / | 0.85

An excerpt from above in order of length of the SMILES, low to high.
Order of values – Ba CapD inh | AID504770
CC1/C(=N\O)CC(c2ccccc2)N(C)C1c1ccccc1 (stereo unspecified)
→ -0.545 | 0.7
OCCCc1nc2n(n1)C(c1ccccc1)C=C(c1ccccc1)N2 (stereo unspecified)
→ 29.6 | -1.45
O=S(=O)(c1ccc(Cl)c(Cl)c1)N1CCN(Cc2ccsc2)CC1
→ -1.14 | /
COc1cccc2cc(C(=O)NC(C)=O)c(=Nc3cccc(C(F)(F)F)c3)oc12
→ 0.105 | /

2 records drawn at random from those above, as already listed:
Order of values – Ba CapD inh | AID504770
S=C(NCCc1ccccc1)N1CCN(c2ncccn2)CC1
→ 0.63 | 0.55
CC1=C(C(=O)Nn2cnc3cccc(F)c3c2=N)Sc2ccccc2N1
→ -1.25 | 0.85

Further entries follow:
Order of values – Ba CapD inh | AID504770
O=c1oc2ccccc2n1Cn1c(=O)oc2ccccc21
→ -0.095 | -0.05
O=C(O)c1cccc(S(=O)(=O)Nc2ccccn2)c1
→ / | -0.6
O=C(c1ccccc1)N1CCN(c2ccc(NCc3ccc4c(c3)OCO4)cc2)CC1
→ 58.4 | -0.65
CCn1cnc2cc(NC(=O)COc3ccccc3)ccc21
→ / | -0.15
CC(C)OC(=O)C1CC(C)(O)C(=O)C(C(=O)OC(C)C)C1c1ccc(F)cc1 (stereo unspecified)
→ / | -0.1
O=S(=O)(c1ccc(Cl)c(Cl)c1)N1CCN(c2c(Cl)cncc2Cl)CC1
→ -1.18 | /
CC1CC(C)(C)NC(=S)N1CC(=O)NCc1ccc2c(c1)OCO2 (stereo unspecified)
→ 0.01 | /
O=C(OCC1CCCN2CCCCC12)c1ccccc1O (stereo unspecified)
→ -0.14 | -0.7
C=CCN1C(=O)NC(=O)/C(=C\c2ccccc2)C1=O
→ 0.235 | -1
CCc1ccc2nc(NC(=O)Cc3csc(NC(=O)c4ccco4)n3)sc2c1
→ / | 0
O=C(CNCCc1ccc(F)cc1)N1N=C(c2ccc(Cl)cc2)CC1c1ccco1 (stereo unspecified)
→ / | -0.05
O=C1/C(=C\c2ccccc2Cl)SC(=S)N1CN1CCOCC1
→ -0.97 | /
CCCCCCCCCCC(=O)c1c[nH]c(C(=O)C(Cl)(Cl)Cl)c1
→ -0.495 | /
Cc1ccccc1-n1c(=S)[nH]c2nc3c(cc2c1=O)CCCC3
→ 13.2 | 0.05
CCN(CC)Cc1nc2ccccc2n1C
→ 0.445 | 0
CC(=O)Nc1ccc(OCCOc2ccc(NC(C)=O)cc2)cc1
→ 0.98 | 2
O=C(OCc1ccc(Sc2ccccc2)c([N+](=O)[O-])c1)c1ccc(Cl)cc1
→ -0.795 | /
O=C1CS/C(=N/N=C/c2ccccc2O)N1
→ / | -0.35
O=C(NC1CCCCCC1)C1=NN(C2CCS(=O)(=O)C2)C(=O)CC1 (stereo unspecified)
→ / | -0.5
O=C(NCCc1ccccc1)c1noc2c1CCc1ccccc1-2
→ -0.075 | 0.25
CC(C)(C)OC(=O)NCCNc1ccc(C(F)(F)F)cc1N
→ 10.2 | /
Cc1noc(C(F)(F)F)c1C(=O)O/N=C(\N)c1cccc(C(F)(F)F)c1
→ -0.24 | /
Cc1cn2c(=O)c(C(=O)N3CCN(C(c4ccccc4)c4ccccc4)CC3)cnc2s1
→ / | -0.15
O=c1c(CNc2ccccc2)cc2cccc3c2n1CCC3
→ -0.055 | -0.9
CSc1nc2c(c(=O)[nH]1)C(c1cc(C)ccc1C)CC(=O)N2 (stereo unspecified)
→ 0.335 | 0.1
N#CC(C#N)=Cc1ccc(-c2ccc3c(c2)COC3=O)o1
→ / | -0.35
N#Cc1c(-c2ccc(F)cc2)cc(-c2ccco2)nc1SCC(=O)Oc1ccccc1
→ 1.58 | -0.05

Screening data from PubChem BioAssay.
